VDR inhibitor = vitamin D3 receptor (human) inhibition; P11473; VDR-SRC2-3 peptide fluorescence polarization, 2 h; Potency, µM, for the others: max response, negative = inhibition, most hits filed as inhibitors; 0.93% of 400,000 active; AID 504847; active means well fitted inhibition curve with a large enough effect; inconclusive means small, poorly fitted or top-dose-only effect, or another doubt; inactive means no such curve, though single readings can be large or run the other way; further: series mostly up to about 120 µM
Target sequence (P11473 whole entry, looked up): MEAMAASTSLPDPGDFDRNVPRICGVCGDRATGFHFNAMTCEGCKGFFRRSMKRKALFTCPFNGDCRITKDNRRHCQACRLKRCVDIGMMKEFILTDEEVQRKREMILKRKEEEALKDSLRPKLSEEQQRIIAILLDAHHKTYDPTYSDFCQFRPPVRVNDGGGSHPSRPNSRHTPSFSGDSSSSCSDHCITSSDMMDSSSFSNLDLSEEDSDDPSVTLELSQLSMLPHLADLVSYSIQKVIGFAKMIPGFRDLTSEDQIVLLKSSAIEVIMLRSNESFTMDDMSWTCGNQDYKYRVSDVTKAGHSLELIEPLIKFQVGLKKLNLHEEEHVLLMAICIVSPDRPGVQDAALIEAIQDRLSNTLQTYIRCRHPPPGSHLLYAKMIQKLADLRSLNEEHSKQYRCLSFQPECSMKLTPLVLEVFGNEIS
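After 23 nl compound addition and a short centrifugation, plates sat for 2 hours at ambient temperature; polarization of fluorescence then indicated loss of VDR binding to peptide SRC2-3.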
Active calls of the source: *; ? = inconclusive. On the % scale 0 is the no-effect control and ±100 the full control effect; potency means the concentration at half of the fitted maximal effect. These rows are one share of the data. The share of hits here may be higher or lower than overall.

SMILES	VDR inhibitor
COc1cc(OC)cc(-c2c(-c3cccs3)c3cc(-c4ccc(C(N)=O)cc4)ccc3n2C)c1	-9%
CCOc1ccsc1C(=O)OC	0%
Cc1ccc(-c2noc(-c3ccccc3C(=O)NCC3CCCO3)n2)cc1 (stereo not given)	-17%
COc1ccc(N(CC(=O)NCc2ccccc2)S(=O)(=O)c2c(C)nn(C)c2C)cc1	-1%
COc1cc(/C=N/N2C(C)CCCC2C)cc(Br)c1O (stereo not given)	-4%
COC(=O)CCCn1nc(NC(=O)COc2ccc(F)cc2)cc1C	-22%
COc1ccc(C(=O)/C=C/Nc2ccccn2)cc1	-2%
CCOC(=O)c1c(C)oc2nc(C)nc(Nc3cc(C)ccc3OC)c12	10%
Cn1nc(C(F)(F)F)c(-c2ccc(Br)cc2)c1NC(=O)c1ccco1	0%
NNC(=O)c1cccc(COc2ccccc2Br)c1	?
Cc1ccc(NC(=O)Cc2ccc([N+](=O)[O-])cc2)c(Br)c1	-1%
Cc1ccc(CSCC(=O)Nc2ccccc2)cc1	-5%
COc1ccc(N2C(=O)CCC(C(=O)NCc3ccccn3)C2c2ccc(OC)c(OC)c2)cc1 (stereo not given)	8%
CCOC(=O)c1[nH]c(C)c(CCC(=O)N2CCN(c3cccc(C)c3C)CC2)c1C	20%
Cc1ccc(NC(=O)N2CCN(c3ccccn3)CC2)cc1	7%
CCN(Cc1ccccc1)C(=O)/C=C/c1ccccc1[N+](=O)[O-]	7%
Cc1ccc(OCC(=O)Nc2ccc3c(c2)ncn3C)cc1	-3%
COc1ccccc1CCC(=O)Nc1ccc2c(c1)CN(CCCn1cccn1)CC2	7%
CC(=O)OCCn1c2nc(=O)[nH]c(=O)c-2nc2cc(C)c(C)cc21	-18%
Cc1c(C)c2c(OCC(=O)NCc3ccccn3)cc3c(c2oc1=O)CCC(C)(C)O3	-11%
CCN1CCN(CCCN(Cc2ccco2)C(=S)Nc2cccc(Cl)c2C)CC1	-20%
CC(NC(=O)CN1C(=O)NC2(CCCCC2C)C1=O)c1ccccc1 (stereo not given)	-10%
CSc1nn(-c2ccc(C(=O)OC(C(=O)NC(N)=O)C(C)C)cc2)c(=S)s1 (stereo not given)	-18%
Cn1nc(C(=O)N2CCN(C(c3ccccc3)c3ccccc3)CC2)c2ccccc2c1=O	10%
CC(NC(=O)COC(=O)Cn1cnc2ccccc2c1=O)C1CC2CCC1C2 (stereo not given)	-15%
CCOc1ccc(S(=O)(=O)N(C)c2ccc(OCC(=O)Nc3ccc4[nH]c(=O)[nH]c4c3)cc2)cc1	28%
O=C(Cn1cnc2ccccc2c1=O)Nc1ccc(-c2nnc3n2CCCCC3)cc1	10%
CCc1cccc(NC(=O)CSC2=NS(=O)(=O)c3ccccc32)c1	13µM*
CCN(CCNC(=O)Nc1ccc(Cl)cc1)c1ccccc1	-8%
O=C(OCn1nnc2ccccc2c1=O)c1cc(-c2ccccc2)nc2ccccc12	15%
COc1ccc(OC)c(-c2nc3cc4ccccc4cc3nc2-c2ccccc2)c1	-12%
Cc1ccc(-n2c(SCC(=O)N/N=C/C=C/c3ccccc3[N+](=O)[O-])nc3ccccc3c2=O)cc1	6%
N#Cc1ccccc1OCC(=O)NCC1(N2CCCCC2)CCCCC1	8%
CC(C)[C@H](NC(=O)OCc1ccccc1)C(=O)OCC(=O)N1CCN(c2ccccc2)CC1	-22%
COc1ccc(CC(NC(C)=O)C(=O)NC2CCN(S(=O)(=O)c3ccc(NC(C)=O)cc3)CC2)c(OC)c1 (stereo not given)	0%
O=C(O)CCCNC(=O)OCc1ccccc1	-2%
Cc1ccc(C(=O)Oc2cc(N)n(S(=O)(=O)c3ccc(F)cc3)n2)cc1	-4%
CCc1nnc(SCc2cccc(F)c2)nc1CC	-13%
C=CCOC(=O)/C(=C\c1cccc2ccccc12)NC(=O)c1ccccc1	15%
CCCC(c1nnnn1Cc1ccc(F)cc1)N1CCN(C)CC1 (stereo not given)	5%
Cc1cc(NC(=O)CO/N=C/c2ccc3c(c2)OCO3)ccc1Br	-9%
CC1CC2OC(=O)C3(C)CCCC(C)(C23)C1(O)CCc1ccoc1 (stereo not given)	4%
Cn1c(=O)c2[nH]c(CCNC(=O)c3ccccc3)nc2n(C)c1=O	-13%
Cc1ccc(OC(C)C(=O)Nc2cc(C)on2)cc1 (stereo not given)	-8%
COc1ccccc1OCCn1cc(/C=N/NC(=O)c2ccncc2)c2ccccc21	-18%

Reformatted field by field: part of the list above.
> CCN1CCN(CCCN(Cc2ccco2)C(=S)Nc2cccc(Cl)c2C)CC1
  VDR inhibitor = -20%
> CC(NC(=O)CN1C(=O)NC2(CCCCC2C)C1=O)c1ccccc1 (stereo not given)
  VDR inhibitor = -10%
> CSc1nn(-c2ccc(C(=O)OC(C(=O)NC(N)=O)C(C)C)cc2)c(=S)s1 (stereo not given)
  VDR inhibitor = -18%
> Cn1nc(C(=O)N2CCN(C(c3ccccc3)c3ccccc3)CC2)c2ccccc2c1=O
  VDR inhibitor = 10%

Remaining list, next part:
SMILES	VDR inhibitor
COc1ccc([C@@H]2CC=C(C(=O)O)[C@H](c3ccc(F)cc3)N2S(=O)(=O)c2ccc(Cl)cc2)cc1	6%
COc1ccc(-c2ccc(CCC(=O)O)n2CC(=O)Nc2ccccc2C)cc1	2%
Cc1ccc(Cn2cc(S(=O)(=O)c3ccc(Cl)cc3)c(=O)c3cc(F)ccc32)cc1	-20%
COC(=O)c1c(NC(=O)/C=C/c2ccc(OC)c(OC)c2)sc2c1CCC2	-19%
CC(C)=CCC[C@](C)(O[C@@H]1O[C@H](CO[C@@H]2OC[C@@H](O)[C@H](O)[C@H]2O)[C@@H](O)[C@H](O)[C@H]1O)C1CC[C@]2(C)C1[C@H](O)CC1[C@@]3(C)CC[C@H](O[C@@H]4O[C@H](CO)[C@@H](O)[C@H](O)[C@H]4O)C(C)(C)C3CC[C@]12C (stereo not given in full)	-2%
COc1ccc(NC(=O)CCCCC#Cc2ccccc2)cc1	-21%
COc1ccccc1/C=N/Nc1cc(C)nc(N2CCOCC2)n1	-18%
COc1ccccc1NC(=O)CN1CCN(CC(=O)Nc2ccc(Cl)c(C(F)(F)F)c2)CC1	11%
CCCCc1nnc(NC(=O)CCS(=O)(=O)c2ccc(Cl)cc2)s1	-2%
COc1ccc(-c2nnc(SC)o2)c(OC)c1	-6%
O=C(c1ccc(Cl)nc1)N1CCN(S(=O)(=O)c2ccc(Cl)cc2)CC1	-10%
CCC1S/C(=N/N=C/c2ccco2)N(Cc2ccccc2)C1=O (stereo not given)	-16%
N#Cc1ccc(CN2CCCC3(CCN(C(=O)c4cnccn4)CC3)C2)cc1	-14%
CCOC(=O)CSC1=C(C#N)C(=O)NC(c2ccc(OC)c(OC)c2)S1 (stereo not given)	?
Cc1ccccc1N1C(=O)c2cccc([N+](=O)[O-])c2C1=O	-1%

With a hit mark in VDR inhibitor, among the entries above:
SMILES	VDR inhibitor
CCc1cccc(NC(=O)CSC2=NS(=O)(=O)c3ccccc32)c1	13µM*

Next part
SMILES	VDR inhibitor
COc1ccc(CC(=O)NCC2COc3ccccc3O2)cc1 (stereo not given)	-1%
CCOC(=O)c1cccc(NC(=O)c2ccco2)c1	-10%
CC(O)CNc1ccc(-c2n[nH]c(=O)c3ccccc23)cc1[N+](=O)[O-] (stereo not given)	-2%
COc1ccc2[nH]cc(CCNc3ccnc(-c4cccc(C#N)c4)n3)c2c1	-14%
COC(=O)c1sc2nc(CN3CCOCC3)nc(N3CCOCC3)c2c1C	-5%
Cc1cc(C)nc(SCc2nnc(SCC(=O)Nc3ccc(C)c(C)c3)o2)n1	-11%
COc1ccccc1-c1cc(C(F)(F)F)c(C#N)c(=O)[nH]1	19%
Nc1cccc(-c2csc(-n3ncc(C(=O)O)c3C(F)(F)F)n2)c1	3%
COc1cccc(CN(C)C(=O)c2ccc(OCC(=O)N3CCOCC3)c(OC)c2)c1	-4%
COc1ccc(CCN(C)c2ncnc3sccc23)cc1OC	-4%
Cc1cc(C(=O)NCCc2ccc(Cl)cc2)c(C)o1	-5%
O=C(CCN1CCCC1)Nc1ccc(Br)cc1	-4%
COc1ccc(CCN2C(=O)C=CC2=O)cc1OC	?
CCc1ccccc1N(CC(=O)N1CCCC1)S(C)(=O)=O	-16%
COc1ccc(C2C(C(=O)NCc3cccnc3)c3cc(OC)c(OC)cc3C(=O)N2C)cc1 (stereo not given)	7%
COc1cccc(OC)c1C(=O)OCCCOC(=O)c1c(OC)cccc1OC	-4%
CC1CN(CCCOc2ccccc2[N+](=O)[O-])CC(C)O1 (stereo not given)	-1%
Clc1cccc(-c2nc(NCc3cccnc3)c3ccccc3n2)c1	12%
C[C@H](C(=O)O)c1cccc(Oc2ccccc2)c1	0%
Cc1ccc(N2CCN(C(=O)Cn3ncc4c([nH]c5ccc(C)cc54)c3=O)CC2)c(C)c1	-3%
Cc1ccc(NC(=O)CN(C)C(=O)c2cc(S(=O)(=O)N(C)C)ccc2N2CCCC2)cc1	0%
C=C(C)CSc1nc2sc3c(c2c(=O)n1-c1ccccc1)CCC(C)C3 (stereo not given)	-21%
CC(NS(=O)(=O)c1ccccc1)C(=O)Nc1ccc2c(c1)OCCO2 (stereo not given)	-10%
O=C(NCCCc1nc2ccccc2n1CCCOc1ccccc1)C1CCCCC1	-22%
C=CCOc1c(CNc2ccc(C(=O)O)cc2)cccc1OCC	-1%
O=C(NN=C(Cc1ccccc1)Cc1ccccc1)c1ccc(F)cc1	-16%
C[C@]12c3[nH]c4ccccc4c3CCN1C(=O)C(CC(=O)NCC13CC4CC(CC(C4)C1)C3)C[C@@H]2C(=O)N1CCCCC1 (stereo not given in full)	?
O=C(CCNS(=O)(=O)c1ccccc1F)N1CCN(C/C=C/c2ccccc2)CC1	4%
C[C@H](NC(=O)c1nc[nH]c1C(=O)N(C)Cc1ccccc1)c1ccccc1	-13%
CCc1ccc(OC(=O)Nc2ccccc2)cc1	1%
CCN(Cc1ccccc1)S(=O)(=O)c1ccc2c(c1)NC(=O)CC(=O)N2	-15%
COC(=O)c1c(NC(=O)c2ccc(S(=O)(=O)N(C)C3CCCCC3)cc2)sc2c1CCN(C)C2	8%
CCN1C(=O)[C@@H]2[C@@H](c3ccc(-c4ccc(Cl)c(Cl)c4)cc3)N3CCCC[C@@]3(C(=O)OC)[C@@H]2C1=O	4%
Cc1ccccc1Nc1sc(C(=O)c2ccc(F)cc2)c(N)c1C(=O)NCCc1ccccc1	3%
CC12CCC3C(CCC4CC(O)CCC43C)C1CC(O)C2 (stereo not given)	2%
COc1ccc(-n2c(C)c(C)c3c(NCCN(C)C)ncnc32)cc1	30%
CCC1CCC2(CC1)NNC(=S)NN2	-29%
Cc1ccccc1CCN1CCCC(CN(C)C(=O)c2ccc3ncccc3c2)C1 (stereo not given)	5%
COc1ccc(NC(=O)Nc2cccc(F)c2)c(OC)c1	-4%
COc1cccc(-n2cnnc2SCC(=O)NC2CC2)c1	-14%
COc1ccccc1NC1SC(=O)N(c2ccccc2)C1=O (stereo not given)	17%
CC(=O)N1CCN=C1SCc1ccc(F)cc1	-8%
COc1ccc(N(CC(=O)NCc2cccs2)S(=O)(=O)c2c(C)n[nH]c2C)cc1	-7%
O=C(CSc1nc2ncccc2[nH]1)Nc1ccccc1-c1ccccc1	-6%
CCCCNc1c(-c2ccc(OC)c(Sc3ccc(OC)cc3)c2)nc2ccccn12	-5%
COc1ccccc1OCCNC(=O)C1CC(=O)N(Cc2ccccc2)C1 (stereo not given)	12%
C=C(C)CSc1nc2ccccc2[nH]1	5%
COc1ccc(NC(=O)c2cn(-c3ccccc3)nc2-c2cc3ccccc3o2)cc1	14%
COc1cc(S(=O)(=O)NCc2ccncc2)ccc1Br	-6%
COc1ccc(CCNC(=O)CCC(=O)N2CC(C)Oc3ccc(Cl)cc32)cc1OC (stereo not given)	-2%
O=C(O)c1cccc(CSc2nnc(Cc3ccccc3)o2)c1	-2%
COc1ccc(CCNC(=O)CN(C)S(=O)(=O)c2ccc3nc(C)sc3c2)cc1OC	-18%
O=C(N/N=C/c1ccccc1)c1[nH]c2ccc(Br)cc2c1-c1ccccc1	-9%
Cc1ccc(-n2c(=O)c3c(c4cc(C)ccc4n3C)n(CC(=O)NCc3ccccc3Cl)c2=O)cc1	-2%
COc1ccccc1NS(=O)(=O)c1cc(NC(=O)c2sccc2C)ccc1N1CCCC1	89µM*
COc1ccc(CN2CCN(C(=O)c3cccs3)CC2)cc1Br	15%
COc1cc(NC(=O)CN2C(=O)NC(C)(c3ccccc3)C2=O)c(C)cc1[N+](=O)[O-] (stereo not given)	4%
O=C(CCN1C(=O)C2CC=CCC2C1=O)NC1CCCCC1 (stereo not given)	-3%
CCOC(=O)COc1nc2ccc(Br)cc2c(-c2ccccc2)c1C(C)=O	9%
CNC(=S)Nc1cc(S(=O)(=O)Nc2cc(Cl)ccc2Cl)ccc1N1CCCC1	17%
Cc1ccnc(SCCn2c(N3CCC(C)CC3)nc3c2c(=O)[nH]c(=O)n3C)n1	-7%
Cc1ccccc1[C@@H](NC(=O)OC(C)(C)C)C(=O)OC(C)(C)C	-5%
CCSc1nnc(NC(=O)NC(C)(C(F)(F)F)C(F)(F)F)s1	-28%

Source: PubChem BioAssay (National Center for Advancing Translational Sciences (NCATS))
